TRPML1 agonist = agonists of human TRPML1 channel; Q9GZU1; TRPML1-expressing cells, Ca2+ dye fluorescence, FDSS; host cell line not named in the record; reference of the full effect not given here; activation, % (concentration not given with the values); 410,000 tested, 0.12% active; in the data active = activation above about 50%; inconclusive = about 30% to 50%; inactive = below about 30%; note: 0% is about no effect; the text of the record puts the active cut at 80%
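Agonist activity was taken from a 110 s kinetic Ca2+ dye read on the FDSS after pinning compounds onto TRPML1-DL cells. The cells were seeded at 1,500/well with Tet inducer, incubated about 16 h, then dye-loaded at room temperature.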
TRPML1 blocker = human mucolipin-1 channel inhibition | TRPML1-inducible cells, Ca2+ dye fluorescence, FDSS; stronger effect = lower value; inhibition of EC80 agonist-evoked calcium signal | activity change, negative = inhibition, % (concentration not given with the values) | 390,000 tested, 0.02% active | AID 624415; in the data active means activity change below about -50%; inconclusive means about -30% to -50%; inactive means above about -30%;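 note: stimulus is agonist 54-4 at its EC80 concentration; % is set by controls: 0 for no effect and ±100 for the full control effect; compound concentration not given in the record; the text of the record puts the active cut at -80%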
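Tet-induced TRPML1-DL cells loaded with Ca8 no-wash calcium dye were read kinetically on FDSS. Compound addition was followed by EC80 agonist 54-4 (4 uM final); inhibition was read over 110 s.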
CtBP-E1A inh = CtBP/E1A binding inhibition. AlphaScreen GST-E1A/His-CtBP binding, 1536-well; stronger effect = lower value; control for the full effect not named in the record. activity change, % (test concentration not listed). 340,000 tested, 0.49% active. AID 651724; in the data active means activity change below about -65%; inconclusive means about -30% to -65%; inactive means above about -30%; note: % is set by controls: 0 for no effect and ±100 for the full control effect; compound concentration not given in the record
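Steps: dispense buffer (Tris pH 8.0, NaCl 300 mM, TCEP 1 mM, BSA, Tween 20); add 5X protein mix (GST-E1A, His-CtBP, 125 nM each); pin 23 nL compound; 2 h at 37 °C, dark; add 5X beads (50 ug/mL); 1 h; read.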
PINK1 expr mod = changes PINK1 expression; PINK1 immunofluorescence, high-content cytometry, 24 h; AID 624263; Potency, µM (series often up to 76.6 µM), for the others: top-dose activation (PINK1 increase), actives largely listed as activators; 410,000 tested, 0.2% active; active = well fitted activation curve with a large enough effect; inconclusive = small, poorly fitted or top-dose-only effect; inactive = flat fitted curve, though single readings scatter; cell line not stated here;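 note: potency is the fitted concentration of half-maximal effect; % of control where 0% means no effect; nearly all actives have a fitted effect of over 65% in size; a mitochondrial uncoupler was the plate control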
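PINK1 protein, normally rapidly degraded, was detected by immunofluorescence after 24 hour compound treatment of a stable cell line. Titration data (5 concentrations) came from laser-scanning cytometry, with CCCP-treated wells as controls.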
D2 ag = human D2 receptor agonism in beta-arrestin assay. 360,000 tested, 0.084% active. DiscoveRx PathHunter D2 beta-arrestin, luminescence, 90 min; 100% = 57 uM dopamine signal. activation, % (no concentration beside the values). P14416; in the data active = activation above about 40%; inconclusive = about 15% to 40%; inactive = below about 15%; note: compound concentration not given in the record; the text of the record calls up to 30% inactive
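DiscoveRx PathHunter D2 beta-arrestin cells (2,100/well) attached overnight, then compound-stimulated 90 min at 37 C in HBSS/10 mM HEPES/0.1% Tween-20 buffer; beta-galactosidase complementation read by luminescence after 1 h at ambient temperature. Dopamine 57 uM final (EC100) as control.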
Six1-Eya2 blk = Six1/Eya2 interaction inhibition | 360,000 tested, 0.56% active | Q15475+O00167 | activity change, % (no concentration beside the values) | AID 651725 | AlphaScreen GST-Six1/His-Eya2 binding, biochemical; stronger effect = lower value; control for the full effect not named in the record; in the data active = activity change below about -65%; inconclusive = about -30% to -65%; inactive = above about -30%; note: % is set by controls: 0 for no effect and ±100 for the full control effect; compound concentration not given in the record
Target sequence (O00167 whole entry, looked up): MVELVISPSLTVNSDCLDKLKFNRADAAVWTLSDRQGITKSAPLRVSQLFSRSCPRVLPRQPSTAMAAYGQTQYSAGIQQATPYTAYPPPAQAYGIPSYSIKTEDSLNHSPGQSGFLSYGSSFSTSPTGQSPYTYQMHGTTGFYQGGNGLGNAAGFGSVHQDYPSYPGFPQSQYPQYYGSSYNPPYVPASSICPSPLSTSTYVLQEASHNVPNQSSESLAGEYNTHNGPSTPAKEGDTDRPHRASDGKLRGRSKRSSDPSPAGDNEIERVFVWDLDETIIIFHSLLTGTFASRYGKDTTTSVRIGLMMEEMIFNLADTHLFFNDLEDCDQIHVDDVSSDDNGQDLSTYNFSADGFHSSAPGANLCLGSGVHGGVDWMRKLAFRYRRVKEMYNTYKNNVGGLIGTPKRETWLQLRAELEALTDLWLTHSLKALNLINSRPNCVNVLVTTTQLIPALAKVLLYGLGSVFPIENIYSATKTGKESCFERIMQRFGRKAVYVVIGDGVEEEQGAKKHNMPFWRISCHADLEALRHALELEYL
Target sequence (Q15475 whole entry, looked up): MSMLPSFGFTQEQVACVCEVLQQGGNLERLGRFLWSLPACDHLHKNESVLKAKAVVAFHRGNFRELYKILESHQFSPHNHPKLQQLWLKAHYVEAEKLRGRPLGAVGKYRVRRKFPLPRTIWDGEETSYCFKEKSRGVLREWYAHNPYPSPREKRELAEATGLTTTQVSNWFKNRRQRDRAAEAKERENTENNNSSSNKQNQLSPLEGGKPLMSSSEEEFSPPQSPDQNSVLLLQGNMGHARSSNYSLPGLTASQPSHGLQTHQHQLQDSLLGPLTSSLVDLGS
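Homogeneous AlphaScreen proximity assay pairing GST-Six1 with His-tagged Eya2 (added as 5X mix: 250 nM and 500 nM) in 50 mM Tris pH 8.0, 300 mM NaCl, 1 mM TCEP. Glutathione donor and nickel acceptor beads; 1 h, 37 °C, dark.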
* = called active by the depositor; ? = inconclusive; / = not tested or not shown; [ ] = remark or other dose.

SMILES	TRPML1 agonist	TRPML1 blocker	CtBP-E1A inh	PINK1 expr mod	D2 ag	Six1-Eya2 blk
CCCCCC(=O)NNC(=S)NC(=O)c1cccc([N+](=O)[O-])c1	-0.5	-7.1	-1.1	2.6%	-3.5	-3.1
COc1ccccc1Nc1nn2c(=O)c3ccc(C(=O)NCCc4ccccc4)cc3nc2s1	0.7	-1.4	/	7.4%	/	/
CC(/C=C/c1ccccc1F)=N\NC(=O)c1ccc(Cl)cc1	-0.7	16.6	-4.7	6.0%	-2.3	6.9
COc1ccc(-c2cc(C(=O)N3CCN(c4cccc(C)c4C)CC3)c3ccccc3n2)cc1OC	-0.1	2.7	2.1	2.8%	-1.6	-3.2
Cc1ccc(S(=O)(=O)CCSc2nc(C)cc(C)c2C#N)cc1	1.6	-2.0	8.7	2.1%[38.3 µM]	-0.5	8.1
C[C@H](NS(=O)(=O)c1ccccc1)C(=O)OCC(=O)NC(=O)Nc1ccc2c(c1)OCCO2	0.4	-12.0	-8.7	2.6%	-5.6	3.2
CNC(=S)/N=C/NOCc1c(Cl)cccc1Cl	0.5	-7.0	4.2	-0.7%	-4.7	7.1
COC(=S)Nc1cccc(C(F)(F)F)c1	0.5	4.3	1.1	4.0%	-2.4	9.4
COc1ccc(-c2nnn(CC(=O)N(CCCN3CCOCC3)C(C(=O)NC3CCCC3)c3ccc(C)o3)n2)cc1 (stereo unspecified)	0.1	29.1	-0.7	-1.5%	-3.5	0.6
Cc1ccc(CSc2ncc(Cl)c(C(=O)Oc3ccc(F)cc3)n2)cc1	-0.6	-4.3	/	2.2%	/	/
Cc1cccc(S(=O)(=O)NC(=O)C2(C)CCN2C(=O)c2c(C)noc2C)c1 (stereo unspecified)	0.0	?	-2.4	0.9%	-4.8	4.6
CCCCN(C(=O)CCNC(=O)NC12CC3CC(CC(C3)C1)C2)c1c(N)n(CCC)c(=O)[nH]c1=O	-0.6	0.6	8.3	0.9%	-6.6	6.4
CCCN(CCC)CC(O)Cn1cc(/C=C/C(=O)c2cccs2)c2ccccc21 (stereo unspecified)	12.7	-7.7	-4.0	-2.2%	8.1	1.7
Cc1sc2ccccc2c1CNC[C@H]1O[C@@H](n2cnc3c(N)ncnc32)[C@H](O)[C@@H]1O	-1.0	-8.8	4.6	2.2%	-2.0	-0.3
Cc1ccc(NC(=O)c2c3c(nc4ccccc24)CCC3)cc1S(=O)(=O)N(C)C	0.5	-8.8	-1.5	5.7%	-3.5	-9.8
COc1ccc(/C=N/NC(=O)c2cccnc2)cc1CN1CCOCC1	-0.4	53.7	2.3	-0.1%	-2.7	4.5
C[C@H](CO)N1C[C@H](C)[C@@H](CN(C)S(=O)(=O)c2ccc(F)cc2)Oc2ccc(NC(=O)Nc3ccc4c(c3)OCO4)cc2C1=O	0.0	-2.4	-16.8	-0.2%	5.3	-18.3
O=C(Nc1ncc2c(n1)-c1ccccc1CC2)c1ccc(Cl)cc1	1.3	-0.1	-4.5	1.3%[38.3 µM]	-1.0	-1.2
CCn1c(C)nc2cc(C(=O)NNC(=S)Nc3ccc(Cl)cc3)ccc21	-0.6	1.9	/	-0.3%	-11.5	-5.4
CCOC(=O)c1cc(-c2ccc(F)cc2)n(CC(=O)NC2CCCCC2)c1C	0.8	13.9	/	0.6%	/	/
Cc1ccc2nc(SCC(=O)Nc3nonc3C)[nH]c2c1	-0.3	11.2	6.6	1.7%	0.1	-8.9
CC(C)N(C(=S)Nc1cccc(S(=O)(=O)N(C)C)c1)c1ccccc1	0.1	4.3	/	-0.2%	-3.0	-12.4
CC1(C(=O)NC2CCCCCCC2)CCC(=O)N1Cc1cccs1 (stereo unspecified)	0.1	40.0	0.8	1.4%[38.3 µM]	-2.6	4.0
CCc1cc2c(NCc3ccco3)ncnc2s1	0.5	-11.1	-6.7	2.4%	1.0	-0.6
CCc1ccccc1Nc1nn2c(=O)c3ccc(C(=O)NCc4ccccc4Cl)cc3nc2s1	2.2	-13.6	/	-3.1%	/	/

Continuation:
SMILES	TRPML1 agonist	TRPML1 blocker	CtBP-E1A inh	PINK1 expr mod	D2 ag	Six1-Eya2 blk
COc1cc(OC)cc(C(=O)OCC(=O)Nc2cccc(C(C)=O)c2)c1	3.0	-2.2	8.4	15.9%	1.1	-1.6
COc1ccc(Cn2c(-c3ccc(C)cc3)c[n+]3ccccc23)cc1	0.2	9.2	1.9	11.3%	0.7	2.4
CCOc1ccc(NC(=O)c2oc3ccccc3c2NC(=O)C(C)Oc2ccccc2)cc1 (stereo unspecified)	0.8	-7.2	/	0.5%	/	/
Cc1ccc(-n2ncc(C#N)c2/N=C/N2CCN(C)CC2)cc1	7.0	4.0	2.0	-0.6%	-3.2	1.8
O=C(CCS(=O)(=O)c1ccc(F)cc1)Nc1ccc(N2CCN(Cc3ccccc3)CC2)cc1	2.7	12.6	-1.8	0.5%	-2.7	-1.8
O=C(CSc1nnc(-c2cccnc2)n1CCc1ccccc1)NCc1ccccc1	-0.7	-7.3	-0.4	-1.5%	1.6	-4.4
O=[N+]([O-])c1ccc(NCc2ccc(Cl)cc2)nc1	2.1	-2.6	-10.5	0.5%	3.4	-4.0
COCCN(C(=O)COC(=O)CCOc1ccccc1C)c1c(N)n(Cc2ccccc2)c(=O)[nH]c1=O	0.1	1.7	3.6	-6.9%	-0.7	1.0
Cc1cc(C)n2nc(C(=O)OCCOc3ccc(Br)cc3)nc2n1	-1.0	-4.6	-1.4	-0.5%	0.5	4.9
COc1ccc(CNC(=O)CSc2cc(=O)n(C)c3ccccc23)cc1	-0.9	8.5	-2.7	5.4%	4.8	0.7
CC(/C=N/N1CCN(c2ccc(C)cc2)CC1)=C\c1ccccc1	-0.6	-1.3	-1.8	0.9%	-7.5	-2.9
CC(C)CCNC(=O)C(c1ccco1)N(Cc1ccccc1)C(=O)c1snc(C(N)=O)c1N (stereo unspecified)	2.6	-6.4	3.4	12.1%[38.3 µM]	-2.0	-0.6
O=C(O)C1Sc2[nH]c(=O)sc2C2c3ccc(O)cc3OC(=O)C12 (stereo unspecified)	9.9	-12.5	8.5	0.0%	0.8	-2.7
CCCCNC(=O)C1(C)CCN1Cc1ccc(C(=O)OCC)cc1 (stereo unspecified)	-0.4	-4.0	0.3	2.3%	-0.8	5.2
COc1ccc2[nH]c3c(c2c1)CCN1C(=O)C(CC(=O)NCCCN(C)C)C[C@H](C(=O)N2CCCCC2)[C@@]31C (stereo partly specified)	0.4	3.2	-21.2	-1.2%	0.4	-3.1
CC(C)COc1ccc(CNC(=S)NCc2ccccc2)cc1	1.6	5.6	-6.3	/	-0.8	-0.8
COc1ccccc1CNC(=O)CCCCn1c(=O)c2ccccc2n(Cc2c(C)cc(C)cc2C)c1=O	-0.3	-0.8	/	-0.2%	/	/
Nc1nccnc1C(=O)OCC(=O)NCCc1ccc(S(N)(=O)=O)cc1	0.7	7.4	0.0	-1.6%	-5.0	17.1
O=C1Nc2ccccc2/C1=C/c1ccnc2ccccc12	-0.8	-9.8	2.4	0.7%	-4.5	-0.4
O=C(COc1ccc(Br)cc1)NC(=S)Nc1ccccc1N1CCOCC1	-0.1	-6.9	7.5	?	-3.7	6.7
O=C(/C=C/c1cccc([N+](=O)[O-])c1)NCCSCc1ccccc1Cl	2.3	-3.3	-4.9	-0.8%	-1.6	-18.2
CC(C)(C)c1ccc(NC(=O)c2c(F)cccc2Cl)cc1	3.1	6.4	5.7	1.9%	-4.5	3.6
CCOC(=O)c1c(C)[nH]c(C(=O)N2CCN(c3ccc(OC)cc3)CC2)c1C	0.1	-0.8	-3.0	-0.6%	-3.9	-14.5
OCCC1CN(Cc2ccc(-c3ccco3)cc2)CCN1Cc1ccsc1 (stereo unspecified)	-0.5	32.3	0.9	0.4%	0.2	-6.8
CCCCCCn1c(C(C)O)nc2ccccc21 (stereo unspecified)	0.5	12.4	3.8	-0.3%	-0.7	1.8

Full records, looked up by structure. Screens in order: TRPML1 agonist | TRPML1 blocker | CtBP-E1A inh | PINK1 expr mod | D2 ag | Six1-Eya2 blk
Shown for `COc1cc(OC)cc(C(=O)OCC(=O)Nc2cccc(C(C)=O)c2)c1` : 3.0 | -2.2 | 8.4 | 15.9% | 1.1 | -1.6
Shown for `Nc1nccnc1C(=O)OCC(=O)NCCc1ccc(S(N)(=O)=O)cc1` : 0.7 | 7.4 | 0.0 | -1.6% | -5.0 | 17.1

The results go on:
SMILES	TRPML1 agonist	TRPML1 blocker	CtBP-E1A inh	PINK1 expr mod	D2 ag	Six1-Eya2 blk
COc1ccc(C(=O)Nc2n[nH]c(-c3ccncc3)n2)cc1	0.1	-14.6	-6.1	11.1%[38.3 µM]	-1.0	-3.3
CCOc1cc(N2CCOCC2)c(OCC)cc1NC(=O)CSc1ncccc1C(=O)O	-0.1	18.4	2.7	-0.3%	7.8	-4.6
Cc1[nH][nH]c(=O)c1C(c1ccc(-c2ccc(F)cc2)o1)c1c(C)[nH][nH]c1=O	0.4	17.8	2.9	3.1%	-4.1	-9.2
CCN(CC)c1ccc(NC(=O)c2cc(OC)cc(OC)c2)c(C)c1	-0.1	-3.3	-5.7	9.0%	-0.7	-29.7
COc1cc2c(cc1OC)/C(=C/c1ccc(Cl)cc1)C(=O)OC2	2.0	-17.9	5.6	2.6%	-4.8	0.1
COc1ccc(-c2noc(CSc3nc(N)cc(=O)[nH]3)n2)cc1OC	-0.1	25.7	/	1.1%	/	/
Cc1ccc(NC(=O)CN(C)C(=O)Cn2ccsc2=N)cc1	-0.2	-8.8	1.7	-1.3%	1.1	0.6
CC(=O)c1cccc(NC(=O)COC(=O)C2CCCN2C(=O)c2cccs2)c1 (stereo unspecified)	0.6	-4.0	-6.3	-0.8%	-0.6	-0.9
CCCCN(CCCNC(=O)c1cc(Nc2ccc(OC)cc2)nc2ccccc12)Cc1ccccc1	1.6	27.3	/	4.0%	/	/
N#CC1=C(SCC(=O)Nc2ccccc2)NC(=O)CC1c1ccco1 (stereo unspecified)	-0.2	2.8	-17.5	?	-0.7	-13.4
COCCCNC(=O)CCCN1C(=O)CCn2nc(-c3cccn3C)cc21	0.7	20.8	/	2.5%	/	/
Cc1ccc(S(=O)(=O)c2nc(-c3ccccc3)oc2N2CCCCCC2)cc1	0.8	9.7	/	3.0%	/	/
CSc1ccc(CNC(=O)C(C)n2nc(C)c3c(C)n(-c4ccccc4)nc3c2=O)cc1 (stereo unspecified)	-1.4	5.1	-0.5	-0.1%	-1.2	-6.8
COC(=O)c1sccc1NC(=O)c1csc2c1CCCC2	3.7	-11.7	41.5	-2.6%[38.3 µM]	-6.5	23.3
Cc1nc(-c2ccc(C#N)cc2)cs1	1.9	7.7	3.8	1.4%	-3.4	5.2
COc1ccc([N+](=O)[O-])cc1N1C(=O)c2cccc3cccc(c23)C1=O	-0.6	1.4	-3.5	11.6%	0.5	2.9
COc1ccc(CC(=O)N2CCCc3ccccc32)cc1OC	1.8	27.3	-2.7	-0.4%	-1.4	-2.3
O=C(NCc1ccccc1)c1ccc2nnsc2c1	0.9	-2.8	20.0	3.4%	-3.9	2.9
CCOC(=O)c1c(S(=O)(=O)Nc2ccc(CN3CCC(C)CC3)cc2)c(C)n(C)c1C	-0.6	-11.1	-4.2	-1.4%	-5.6	-6.3
Cc1cc(C)c2nc(N)sc2c1	0.0	2.4	-8.3	2.7%	-0.9	4.3
